UCH37 DUB inh – inhibitors of human UCH37 deubiquitinase, primary screen, biochemical, Ub-AMC cleavage, fluorescence; Ubiquitin carboxyl-terminal hydrolase isozyme L5 (Homo sapiens), Q9Y5K5; purified proteasome/UCH37; inhibition, % (no concentration beside the values); actives 0.33% (n = 330,000);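 active = mean of two replicates above 20%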;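 also: 0% = compound-free wells with enzyme and 100% = wells lacking proteasome; stock transfer was 100 nL into about 20 µL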
Target sequence (Q9Y5K5 whole entry, looked up): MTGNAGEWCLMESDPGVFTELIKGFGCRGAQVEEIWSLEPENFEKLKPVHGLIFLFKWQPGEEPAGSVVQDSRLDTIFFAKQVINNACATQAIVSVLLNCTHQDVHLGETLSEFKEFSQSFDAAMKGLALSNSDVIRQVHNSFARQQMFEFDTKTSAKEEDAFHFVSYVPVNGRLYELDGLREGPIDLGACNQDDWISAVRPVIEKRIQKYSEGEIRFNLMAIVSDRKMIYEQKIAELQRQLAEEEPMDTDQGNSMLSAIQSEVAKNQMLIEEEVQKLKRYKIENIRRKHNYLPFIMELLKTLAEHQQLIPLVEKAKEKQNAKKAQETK
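Schedule: 30 min plus 25 min, room temperature / Material: human UCH37 within purified proteasomes / Technique: AMC fluorescence intensity at 355/460 nm / Buffer or medium: pH 7.4 Tris-HCl (50 mM) with ovalbumin, ATP-MgCl2, DTT / Controls: wells without proteasome as full block, compound-free enzyme plus substrate as uninhibited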
Beta2AR agonist – beta2AR agonists driving receptor internalization, primary screen, cell-based, FAP fluorogen, flow cytometry; Beta-2 adrenergic receptor (Homo sapiens), P07550; Am2.2-beta2AR cells; reference of the scale not given here; response, % (test concentration not listed); actives 0.43% (n = 340,000);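 active = response above a set limit, near 3 SD of response in nonfluorescent compounds, cut at about 42% in these data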;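 also: stock transfer was 100 nL into about 11 µL; a reference agonist was the positive control; negative values mostly stem from fluorescent compounds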
A1 inh – caspase 3/7 activation in MEF A1-2A-BIM cells, primary screen, A1 inhibitor project, cell-based, luminescence, HTS | actives 0.066% (n = 330,000) | Caspase-Glo 3/7 luminescence, 3 h; percent of clofoctol response, vehicle zero | caspase activation, % (concentration not given with the values) | AID 2462, 2010;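 active = over half of replicate activation scores above 10%, or exactly half above 10 with the replicate mean above 10; inconclusive = replicate mean below 10 yet half the replicates above 10; inactive = over half of replicates below 10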;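 also: wells of about 30 µL received 50 nL stock; many hits fall short of the cut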
Vif A3G – inhibitors of Vif binding to APOBEC3G peptide, primary screen, biochemical, TR-FRET, GST-Vif 1-94, biotin-A3G peptide, dose response retest (AID 1117319); TR-FRET GST-Vif / biotin-A3G peptide binding; higher % means a stronger effect; test concentration not given here; strong numbers were not always called active; inhibition, %; hits with a dose series show IC50 in µM; Virion infectivity factor (Human immunodeficiency virus type 1 group M subtype B (isolate …; actives 0.57% (n = 260,000);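 active = above the screen mean plus three standard deviations and confirmed in dose response; inconclusive = results disagree or hit not tested in dose response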;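 also: Vif residues 1-94 fused to GST binding biotinylated APOBEC3G peptide 110-148; 0% = full assay without inhibitor and 100% = GST in place of GST-Vif; retest series ran down from 100 µM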
HNF4A DNA FP – change in binding of human HNF4A to DNA, primary screen, biochemical, fluorescence polarization, FITC-DNA; Hepatocyte nuclear factor 4-alpha (Homo sapiens), P41235; 1 h; activity change, % at 10 µM; actives 0.3% (n = 360,000); AID 1224865, 2016; in the data active = activity change above about 30%, passing the limit was not always enough;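 also: controls were the assay level and a saturating level of protein; the project sought stronger binding though the title names inhibitors; some compounds called inactive have numbers as strong as hits; positive values seem to mean higher polarization but the record does not say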
Target sequence (P41235 whole entry, looked up): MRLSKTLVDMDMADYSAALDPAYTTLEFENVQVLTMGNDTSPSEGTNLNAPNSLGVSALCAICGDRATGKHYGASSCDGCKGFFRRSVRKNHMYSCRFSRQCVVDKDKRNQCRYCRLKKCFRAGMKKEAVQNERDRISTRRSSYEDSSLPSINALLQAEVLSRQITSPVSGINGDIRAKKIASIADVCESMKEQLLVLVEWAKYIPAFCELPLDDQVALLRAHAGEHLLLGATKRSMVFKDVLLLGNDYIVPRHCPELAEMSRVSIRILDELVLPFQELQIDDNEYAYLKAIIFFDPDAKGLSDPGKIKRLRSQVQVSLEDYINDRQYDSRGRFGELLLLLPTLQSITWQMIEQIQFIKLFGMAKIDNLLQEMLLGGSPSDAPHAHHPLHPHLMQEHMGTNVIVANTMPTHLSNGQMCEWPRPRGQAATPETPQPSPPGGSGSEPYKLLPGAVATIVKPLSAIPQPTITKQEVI
LANA-H2B inh – blockers of LANA interaction with H2A/H2B – biochemical, FP readout, HTS, primary screen | actives 0.6% (n = 320,000) | inhibition, % (no concentration beside the values) | Protein LANA1 (Human herpesvirus 8 type P (isolate GK18)), Q9QR71 | cell-free LANA-H2A/H2B peptide, fluorescence polarization; in the data active = inhibition mostly above about 10%, no sharp cut-off; inactive = mostly below about 6.7%;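 also: stock transfer was 7.5 nL into about 10 µL; 0% = median of vehicle wells and 100% = median of positive control wells; one replicate is shown; the record names a cut of 25% in any replicate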
Ecoli growth – E. coli growth inhibition, primary screen, OD600 | Escherichia coli growth, 23 h; hits give low values | OD600 absorbance (no concentration beside the values) | actives 0.21% (n = 330,000);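 active = OD600 absorbance below the run mean of sample wells minus 3.6 SD, in any replicate, cut at about 0.56 in these data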;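 also: stock transfer was 300 nL into about 60 µL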
* = called active by the depositor.

`CC(C)(C)c1cc(N)on1` gave UCH37 DUB inh 4.7, Beta2AR agonist -2, A1 inh 0.9, HNF4A DNA FP -0.8, LANA-H2B inh 2.5 and Ecoli growth 0.69.
COc1ccc(C(=O)NC2=C(C#N)CCC2)cc1OC was read as UCH37 DUB inh 2.6, Beta2AR agonist -13, A1 inh 0.1, Vif A3G inconclusive, HNF4A DNA FP -0.8, LANA-H2B inh -6.6 and Ecoli growth 0.7.
For Cc1cc(NC(=O)CSc2n[nH]c(CC(C)C)n2)no1 the results were UCH37 DUB inh 3.3, Beta2AR agonist -1, A1 inh -0.5, Vif A3G -2%, HNF4A DNA FP -9.3, LANA-H2B inh 4.2 and Ecoli growth 0.69.
`COCCOC(=O)c1c(C)oc2ccc(NS(=O)(=O)c3ccc(C)cc3)cc12` gave UCH37 DUB inh 1.9, Beta2AR agonist 0, A1 inh 1.0, Vif A3G 28%, HNF4A DNA FP -0.2, LANA-H2B inh 1.0 and Ecoli growth 0.67.
For Cc1c(C(=O)N2CCN(S(C)(=O)=O)CC2)oc2ccccc12 the results were UCH37 DUB inh 3.9, Beta2AR agonist 7, A1 inh -0.2, Vif A3G -2%, HNF4A DNA FP 2.1, LANA-H2B inh 2.1 and Ecoli growth 0.64.
For COC(=O)C1=C(C)N(C)C(C)=C(C(=O)OC)C1c1ccc(Cl)cc1 the results were UCH37 DUB inh -10, Beta2AR agonist 3, A1 inh 1.9, Vif A3G 2%, HNF4A DNA FP 2.8, LANA-H2B inh -4.2 and Ecoli growth 0.79.
`C[C@@H]1CN([C@H](C)CO)C(=O)Cc2cc(NS(=O)(=O)c3cn(C)cn3)ccc2O[C@H]1CN(C)S(=O)(=O)c1ccc(Cl)cc1` gave UCH37 DUB inh 3.2, Beta2AR agonist -4, Vif A3G 3%, HNF4A DNA FP 5.3 and Ecoli growth 0.71.
Screening Cc1csc(=O)n1CCC(=O)OCC(=O)NNC(=O)c1ccc(Cl)cc1 returned UCH37 DUB inh 1.2, Beta2AR agonist -8, Vif A3G 0%, HNF4A DNA FP -1.3 and Ecoli growth 0.65.
For CCOc1ccc(NC(=O)C(=O)NCCN2CCN(C(=O)c3ccc(C)cc3)CC2)cc1 the results were UCH37 DUB inh 7.7, Beta2AR agonist -1, A1 inh -0.1, HNF4A DNA FP 1.1, LANA-H2B inh -5.8 and Ecoli growth 0.67.
Screening CCc1nnc(N/N=C/c2cc(Br)c(O)cc2O)n1N returned Beta2AR agonist -2, A1 inh 0.8, HNF4A DNA FP 0.7 and LANA-H2B inh -9.6.
Screening O=C(CCCOc1ccc(Cl)cc1Cl)N1CCc2ccccc2C1 returned UCH37 DUB inh 3.6, Beta2AR agonist -13, A1 inh 0.1, HNF4A DNA FP -2.8, LANA-H2B inh 0.2 and Ecoli growth 0.64.
O=C(N/N=C/c1ccc(N2CCOCC2)s1)c1ccc(NS(=O)(=O)c2cccs2)cc1 was read as Beta2AR agonist 7, A1 inh -0.1, HNF4A DNA FP 29 and LANA-H2B inh -4.0.
`O=C1CCCN1CCC(=O)N1CCCC(CO)(Cc2ccccc2)C1` (stereo unspecified) gave UCH37 DUB inh 0.6, Beta2AR agonist 1, A1 inh 0.2, HNF4A DNA FP -5.2, LANA-H2B inh 11 and Ecoli growth 0.65.
`Cc1n[nH]c(C)c1CS(=O)(=O)c1ccccc1` gave UCH37 DUB inh -2.4, Beta2AR agonist -6, A1 inh -0.6, HNF4A DNA FP -3.7, LANA-H2B inh -0.1 and Ecoli growth 0.65.
Screening Cc1cc(/C=N/NC(=O)c2nn(C)cc2Cl)c(C)n1-c1cccc(Br)c1 returned Beta2AR agonist 10, A1 inh 0.2, Vif A3G -3%, HNF4A DNA FP -1.3 and LANA-H2B inh -0.2.

Overlap with the part before: 2 compounds, followed by the next part.
`Cc1n[nH]c(C)c1CS(=O)(=O)c1ccccc1` gave UCH37 DUB inh -2.4, Beta2AR agonist -6, A1 inh -0.6, HNF4A DNA FP -3.7, LANA-H2B inh -0.1 and Ecoli growth 0.65.
Screening Cc1cc(/C=N/NC(=O)c2nn(C)cc2Cl)c(C)n1-c1cccc(Br)c1 returned Beta2AR agonist 10, A1 inh 0.2, Vif A3G -3%, HNF4A DNA FP -1.3 and LANA-H2B inh -0.2.
Screening CCOc1ncccc1C(=O)Nc1nnc(C2CC2)s1 returned UCH37 DUB inh 5.3, Beta2AR agonist -26, A1 inh 0.6, Vif A3G -1%, HNF4A DNA FP -2.0, LANA-H2B inh 0.8 and Ecoli growth 0.66.
`CC(=O)Nc1ccc(S(=O)(=O)N(C)CC(=O)OCCOc2cccc(C)c2)cc1` gave UCH37 DUB inh 5.1, Beta2AR agonist 15, A1 inh -1.2, HNF4A DNA FP -0.7, LANA-H2B inh 1.6 and Ecoli growth 0.69.
Screening O=C(NCc1cccs1)C1CCCN1C(=O)Nc1ccccc1[N+](=O)[O-] (stereo unspecified) returned UCH37 DUB inh 2.4, Beta2AR agonist 4, A1 inh -0.6, HNF4A DNA FP 2.5, LANA-H2B inh -5.1 and Ecoli growth 0.63.
CC(C)(C)C(=O)NNc1nc(-c2ccccc2)c2cc(Br)ccc2n1 was read as UCH37 DUB inh 7.2, Beta2AR agonist -11, A1 inh 0.6, HNF4A DNA FP 0.1, LANA-H2B inh 2.3 and Ecoli growth 0.73.
Screening Cc1cccc(NC(=O)[C@@H]2CCCN2S(=O)(=O)c2ccc(Cl)cc2)c1 returned UCH37 DUB inh 4.8, Beta2AR agonist 2, A1 inh 0.0, HNF4A DNA FP 5.8, LANA-H2B inh 3.0 and Ecoli growth 0.67.
`COCC(=O)N1CCC(Oc2ccc(C(=O)N3CCN(C)C[C@@H]3C(C)C)cc2)CC1` gave UCH37 DUB inh 1.3, Beta2AR agonist -6, HNF4A DNA FP 0.4 and Ecoli growth 0.73.
Screening CCOCc1nc(N)[nH]c(=O)c1Cc1ccc(OC(C)C)cc1 returned UCH37 DUB inh 8.3, Beta2AR agonist 0, A1 inh 0.2, Vif A3G 15%, HNF4A DNA FP 0.3, LANA-H2B inh 0.5 and Ecoli growth 0.72.
`Oc1cc(-c2cccnc2)cc2cccnc12` gave UCH37 DUB inh 2.2, Beta2AR agonist -4, A1 inh 0.6, HNF4A DNA FP -2.1, LANA-H2B inh -6.8 and Ecoli growth 0.62.
Screening COC(=O)Nc1ccc(S(=O)(=O)Nc2ccc(C(=O)O)cc2)cc1 returned UCH37 DUB inh 1.8, Beta2AR agonist -4, A1 inh -1.1, Vif A3G 3%, HNF4A DNA FP -0.8, LANA-H2B inh 0.2 and Ecoli growth 0.68.
For Cc1ccccc1CCNC(=O)Cn1nc(C)c2c(C)n(-c3ccccc3)nc2c1=O the results were UCH37 DUB inh 1.7, Beta2AR agonist 13, A1 inh 2.3, HNF4A DNA FP -3.4, LANA-H2B inh 2.7 and Ecoli growth 0.67.
`O=C(C1CCCC1)N1CCCC(Nc2ccc(F)cc2)C1` (stereo unspecified) gave UCH37 DUB inh 5.2, Beta2AR agonist -7, A1 inh 0.3, Vif A3G 53%, HNF4A DNA FP 2.0, LANA-H2B inh -0.5 and Ecoli growth 0.7.
CC1(C#N)c2ccccc2C(Br)=CN1C(=O)c1ccccc1 (stereo unspecified) was read as UCH37 DUB inh 2.3, Beta2AR agonist 2, A1 inh 0.2, HNF4A DNA FP -2.2, LANA-H2B inh -2.2 and Ecoli growth 0.67.
For Cc1ccc(C(=O)CSC2=C(C#N)C(c3ccco3)CC(=O)N2)c(C)c1 (stereo unspecified) the results were UCH37 DUB inh 5.4, Beta2AR agonist 0, A1 inh 0.1, Vif A3G inconclusive, HNF4A DNA FP -6.9, LANA-H2B inh 6.3 and Ecoli growth 0.68.
Screening COc1ccccc1C(=O)C(=O)c1ccccc1OC returned UCH37 DUB inh 5.1, Beta2AR agonist 2, Vif A3G -6%, HNF4A DNA FP -2.6 and Ecoli growth 0.7.
Cn1ncc(Cl)c1C(=O)Nc1ccc2c(c1)OCO2 was read as UCH37 DUB inh 0.6, Beta2AR agonist 0, A1 inh -0.1, HNF4A DNA FP 2.1, LANA-H2B inh -3.4 and Ecoli growth 0.71.
For c1csc(-c2nn3c(C4CCCCC4)nnc3s2)c1 the results were UCH37 DUB inh 1.3, Beta2AR agonist -7, HNF4A DNA FP 1.7 and Ecoli growth 0.65.
Screening Oc1cccc2c(NC(=S)Nc3ccc(OC(F)F)cc3)cccc12 returned UCH37 DUB inh 1.3, Beta2AR agonist 1, A1 inh -1.3, Vif A3G inconclusive, HNF4A DNA FP 0.6, LANA-H2B inh 0.6 and Ecoli growth 0.67.
Screening CN(CC(=O)Nc1ccc(Cl)cc1)C(=O)Cn1[nH]c(=O)c2ccccc2c1=O returned UCH37 DUB inh -25, Beta2AR agonist -1, A1 inh -0.3, Vif A3G 10%, HNF4A DNA FP -0.2, LANA-H2B inh 7.2 and Ecoli growth 0.7.
O=C(COc1ccccc1[N+](=O)[O-])N1CCN(C(=O)c2ccco2)CC1 was read as Beta2AR agonist 3, A1 inh -0.3, Vif A3G -5%, HNF4A DNA FP -1.1 and LANA-H2B inh -2.9.
Screening Cn1c(SCc2cc(=O)[nH]c3ccccc23)nnc1-c1ccc(Br)cc1 returned UCH37 DUB inh 5.0, Beta2AR agonist -15, A1 inh 0.7, Vif A3G -16%, HNF4A DNA FP 1.1, LANA-H2B inh 3.1 and Ecoli growth 0.72.
CCOc1ccc(C(c2c(C)[nH][nH]c2=O)c2c(C)[nH][nH]c2=O)cc1OC was read as UCH37 DUB inh 5.3, Beta2AR agonist -5, A1 inh -0.1, Vif A3G 6%, HNF4A DNA FP 6.3, LANA-H2B inh 5.9 and Ecoli growth 0.7.
`CCCCCCCC1(C)NC(=O)N(c2ccccc2)N1` (stereo unspecified) gave UCH37 DUB inh 1.2, Beta2AR agonist -3, A1 inh -0.4, Vif A3G -1%, HNF4A DNA FP 1.3, LANA-H2B inh 0.3 and Ecoli growth 0.69.
Screening C/C(=C\C(=O)c1ccc(Br)cc1)N1CCCCC1 returned UCH37 DUB inh 6.4, Beta2AR agonist 5, A1 inh 0.9, Vif A3G >100µM*, HNF4A DNA FP -1.9, LANA-H2B inh 2.7 and Ecoli growth 0.66.
`CCn1cc([N+](=O)[O-])c(C(=O)N2N=C(c3ccc(Cl)c(Cl)c3)CC2c2ccccc2O)n1` (stereo unspecified) gave UCH37 DUB inh 0.2, Beta2AR agonist -5, A1 inh 0.1, Vif A3G 0%, HNF4A DNA FP 3.4, LANA-H2B inh 1.0 and Ecoli growth 0.74.
COCCN(C(=O)CSCc1ccccc1)c1c(N)n(Cc2ccccc2)c(=O)[nH]c1=O was read as UCH37 DUB inh 2.7, Beta2AR agonist -2, A1 inh -0.2, HNF4A DNA FP 1.1, LANA-H2B inh 1.8 and Ecoli growth 0.69.
Screening COc1ccccc1C1=NOC(COC(=O)c2ccc(Br)cc2)C1 (stereo unspecified) returned UCH37 DUB inh 1.0, Beta2AR agonist 0, A1 inh -0.5, Vif A3G 3%, HNF4A DNA FP -1.0, LANA-H2B inh 0.3 and Ecoli growth 0.71.

Compound activity as filed in PubChem.
